# HIV Env fusion: inhibitors of HIV-1 Env-driven cell-cell fusion, primary screen, HeLa-JRFL effector, CEM21 target cells, luciferase. inhibition, % at 12.3 µM. 1.1% of 360,000 active. AID 651610, 2012;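 active = mean replicate inhibition score of at least 50 and every replicate individually at or above 50; inconclusive = only one of the two criteria met; inactive = mean below 50 and not all replicates reaching 50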;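 note: 0% = plate neutral controls and 100% = maraviroc near 300 nM; one replicate is shown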
# eIF4H FP inh: human eIF4H binding inhibitors, primary screen, translation initiation inhibitor project, biochemical, uHTS, fluorescence polarization. eIF4H fluorescence polarization binding assay. inhibition, % at 35 µM. 0.94% of 290,000 active;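 active = 50% or more with normal probe brightness, or confirmed in later tests; inconclusive = above 50% with abnormal brightness, or retests that disagree; inactive = below 50% or failed in later tests; about a fifth of its hits are not listed in these tables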;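 note: calls also rest on retests at 20 µM and on dose response follow-up; 0% = protein and probe with vehicle and 100% = probe without protein; strong numbers were not always called active; many hits fall short of the cut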
# Yeast UUG start: modulators of yeast start codon fidelity, primary screen, whole organism, S. cerevisiae, single point, plate reader; S. cerevisiae UUG-firefly luciferase reporter, luminescence/redox ratio; 0.13% of 350,000 active; activity score, % at 18.7 µM;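 active = replicate mean at a twofold rise or more, about +100% in these data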;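 note: firefly luciferase made from a UUG start codon reports start codon fidelity; reporter light over untreated wells divided by growth signal over untreated wells; some hits fall short of that in this replicate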
# Rce1 inhib: yeast Rce1p protease inhibitors, primary screen, biochemical, fluorescence, cell-free homogeneous; CAAX prenyl protease 2 (Saccharomyces cerevisiae (strain ATCC 204508 / S288c)), Q03530; yeast membranes, quenched prenylated peptide cleavage fluorescence; calls only; 0.27% of 290,000 active;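 active = fall in fluorescence gain of 50% or more versus controls, with final raw signal at or below 3038400; inconclusive = same 50% fall but final raw signal above 3038400; inactive = fall in fluorescence gain under 50%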;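 note: plate controls were neutral control wells for no effect and wells lacking membranes for full effect; tested at 10 µM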
# Target sequence (Q03530 whole entry, looked up): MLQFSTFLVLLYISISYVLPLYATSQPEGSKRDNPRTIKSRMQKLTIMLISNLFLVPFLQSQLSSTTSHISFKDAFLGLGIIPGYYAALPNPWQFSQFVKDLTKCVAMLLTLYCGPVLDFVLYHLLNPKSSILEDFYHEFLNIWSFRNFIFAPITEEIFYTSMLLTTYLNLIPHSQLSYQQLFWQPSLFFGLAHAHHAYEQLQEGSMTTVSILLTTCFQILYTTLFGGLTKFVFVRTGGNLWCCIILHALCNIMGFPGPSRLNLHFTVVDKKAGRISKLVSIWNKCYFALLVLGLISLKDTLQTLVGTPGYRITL
# CSC inhib: cancer stem cell viability inhibitors, primary screen, luminescence. cancer stem cell-like cells viability. inhibition, % at 7.5 µM. 1.1% of 300,000 active. AID 2717, 2010;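 active = mean at 75% or more and at least half the replicates too; inconclusive = mean and replicates disagree; tested in HMLE shEcad cells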;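 note: 0% = median of negative and 100% = median of positive control wells; the first replicate is given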
# PABP polyA inh: PABP poly(A) RNA binding inhibitors, primary screen, biochemical, fluorescence polarization, uHTS | 1% of 290,000 active | inhibition, % at 35 µM | Polyadenylate-binding protein 1 (Homo sapiens), P11940;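 active = 50% or more with normal probe brightness, or confirmed in later tests; inconclusive = above 50% with abnormal brightness, or retests that disagree; inactive = below 50% or failed in later tests; about a fifth of its hits are not listed in these tables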;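 note: calls also rest on retests at 20 µM and on dose response follow-up; controls were probe without protein and protein plus probe with vehicle; some compounds called inactive have numbers as strong as hits; many hits fall short of the cut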
# Target sequence (P11940 whole entry, looked up): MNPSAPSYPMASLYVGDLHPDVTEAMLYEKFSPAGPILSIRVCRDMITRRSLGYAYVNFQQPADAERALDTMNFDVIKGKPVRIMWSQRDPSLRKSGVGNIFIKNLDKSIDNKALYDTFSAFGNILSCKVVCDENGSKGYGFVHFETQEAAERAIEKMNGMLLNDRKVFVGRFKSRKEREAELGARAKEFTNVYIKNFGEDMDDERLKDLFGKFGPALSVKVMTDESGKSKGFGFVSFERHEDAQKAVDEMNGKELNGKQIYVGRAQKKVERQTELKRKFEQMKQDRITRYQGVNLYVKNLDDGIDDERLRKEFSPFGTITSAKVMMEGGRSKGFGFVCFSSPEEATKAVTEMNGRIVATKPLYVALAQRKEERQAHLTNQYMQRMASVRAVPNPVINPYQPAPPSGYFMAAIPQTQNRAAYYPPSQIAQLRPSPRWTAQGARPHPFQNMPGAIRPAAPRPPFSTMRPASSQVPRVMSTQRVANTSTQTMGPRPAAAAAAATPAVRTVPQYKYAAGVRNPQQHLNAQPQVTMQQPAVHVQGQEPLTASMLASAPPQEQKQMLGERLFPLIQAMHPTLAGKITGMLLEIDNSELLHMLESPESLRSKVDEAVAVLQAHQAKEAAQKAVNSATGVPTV
# MT1-MMP act inh: blockers of MT1-MMP proenzyme processing, primary screen, HT1080 RFP-PRO-GFP cells, GFP/RFP fluorescence; AID 651647, 2012; GFP/RFP ratio fluorescence, overnight; percent of plate control window, DMSO zero; 0.061% of 360,000 active; GFP/RFP ratio change, % at 20 µM;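 active = GFP/RFP ratio change of at least 30% with cell ATP level not reduced by more than half and red fluorescence within 50% of control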; note: strong numbers were not always called active
#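 Material – HT1080 RFP-PRO-GFP cells · Control set – DMSO wells and RFP-L50D-GFP cells · Incubation – overnight cell settling, then overnight compound exposure, 37 °C, 5% CO2 · Compound dosing – single-point 20 µM compound, 1% DMSO · Read-out – GFP/RFP fluorescence ratio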
# MT1-MMP act inh RFP: recorded beside MT1-MMP act inh, whose call it bears; RFP signal change, %; measured here: RFP expression control read;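 0 = vehicle wells; hits needed this value within 50% of zero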
# * hit, by the source's call; i = inactive; ? = inconclusive; nt = no result given; & = joins results of further samples. This is a subset. The share of hits here may be higher or lower than overall.
SMILES,HIV Env fusion,eIF4H FP inh,Yeast UUG start,Rce1 inhib,CSC inhib,PABP polyA inh,MT1-MMP act inh,MT1-MMP act inh RFP
CCCc1nc2c(nnn2Cc2ccccc2)c(=O)[nH]1,nt,-10,nt,i,1,-2,-1,0
Cc1ccc(N2C(=O)N(CC(=O)NCc3ccc(Cl)cc3)C(=O)C2C)cc1 (stereo not given),-21,-2,-9,i,-5,2,4,-2
CCc1ccc2c(c1)[C@H]1OCC[C@H]1[C@@H](c1cccs1)N2,29,-4,nt,i,?,8,-12,-21
COc1cccc(C(=O)N=c2sc3c(C)ccc(OC)c3n2C)c1,-4,1,-7,i,9,-17,-3,-2
COc1ccc(C2CC(=O)Oc3cc(OC)ccc32)cc1 (stereo not given),-13,nt,-4,nt,nt,nt,4,3
NC(=O)c1ccsc1NC(=O)CCS(=O)(=O)c1ccc(Cl)cc1,21,nt,-29,nt,nt,nt,7,-6
CC(C)c1ccccc1OS(N)(=O)=O,?,0,-6,i,4,6,2,8
O=C(NC(NC(=S)Nc1ccccc1C(=O)O)C(Cl)(Cl)Cl)c1cccc([N+](=O)[O-])c1 (stereo not given),-38,12,nt,i,4,16,2,6
CCn1c(=O)cc(N2CCOCC2)[nH]c1=O,11,2,nt,i,-6,-9,5,7
COc1cc(CN(C)C(C)C(=O)Nc2ccc([N+](=O)[O-])cc2Cl)ccc1OC(F)F (stereo not given),29,-6,nt,i,17,-14,-1,-3
CCOC(=O)CCN(Cc1ccccc1)S(=O)(=O)c1csc(C(N)=O)c1,6,6,-10,i,-5,1,-3,0
COc1ccccc1N1C(=O)c2ccc(C(=O)Nc3ccc(C(=O)O)cc3)cc2C1=O,3,0,-10,i,-12,-3,0,3
Cc1ccc(S(=O)(=O)NC(=NC2CCCCC2)c2ccc(Cl)cc2)cc1,nt,-6,-11,i,-4,-1,-3,-7
COc1cccc(C(=O)Nc2ccc(NC(=O)C(C)(C)C)cn2)c1,-196,-7,-63,i,nt,4,4,4
CCC(CC)NC(=O)CCc1nc2ccccc2c(=O)[nH]1,-10,-12,4,i,nt,3,-2,4
O=C(O)C1CC=CCC1C(=O)NNS(=O)(=O)c1ccccc1 (stereo not given),3,-5,nt,i,1,10,-2,-4
O=[N+]([O-])c1ccc(CSc2ccc(S(=O)(=O)N3CCOCC3)cn2)cc1,32,nt,0,nt,nt,nt,1,-7
CC1=C(C(=O)OCc2ccccc2)C(c2ccc(Cl)cc2Cl)NC(=O)N1CCCCCC(=O)O (stereo not given),nt,-6,nt,i,11,9,nt,nt
CN1CCN(c2ccccc2NC(=O)c2ccc(N3CCCC3)c([N+](=O)[O-])c2)CC1,16,-2,-4,i,nt,11,1,-1
CC(C)c1ccc(/C=C(\NC(=O)c2ccccc2)C(=O)NCCN2CCOCC2)cc1,-9,-16,3,nt,-5,11,-5,1

# Compound profiles, as listed above. Order of screens: HIV Env fusion	eIF4H FP inh	Yeast UUG start	Rce1 inhib	CSC inhib	PABP polyA inh	MT1-MMP act inh	MT1-MMP act inh RFP
# Profile of CN1CCN(c2ccccc2NC(=O)c2ccc(N3CCCC3)c([N+](=O)[O-])c2)CC1 : 16	-2	-4	i	nt	11	1	-1
# Profile of O=[N+]([O-])c1ccc(CSc2ccc(S(=O)(=O)N3CCOCC3)cn2)cc1 : 32	nt	0	nt	nt	nt	1	-7
# Profile of CC1=C(C(=O)OCc2ccccc2)C(c2ccc(Cl)cc2Cl)NC(=O)N1CCCCCC(=O)O (stereo not given) : nt	-6	nt	i	11	9	nt	nt
# Profile of CCC(CC)NC(=O)CCc1nc2ccccc2c(=O)[nH]1 : -10	-12	4	i	nt	3	-2	4

# The list continues.
SMILES,HIV Env fusion,eIF4H FP inh,Yeast UUG start,Rce1 inhib,CSC inhib,PABP polyA inh,MT1-MMP act inh,MT1-MMP act inh RFP
Cc1cc(NC(=O)C2C3C=CC(C3)C2C(=O)O)no1 (stereo not given),nt,6,-19,i,4,3,1,3
CCc1ccc(-c2cc(C)no2)cc1S(=O)(=O)Nc1cc(C)on1,-6,-9,nt,i,-4,4,-4,1
COc1ccccc1NC(=O)N(Cc1cc2cc(OC)c(OC)cc2[nH]c1=O)CC1CCCO1 (stereo not given),nt,-1,22,i,-13,-1,nt,nt
O=C(Nc1ccc2[nH]ncc2c1)c1ccccc1,-18,-1,-30,i,-11,1,0,0
Cc1oc2c(c1C(=O)N1CCOCC1)C(=O)c1ccccc1C2=O,42,-11,-7,i,56,-7,-2,-12
COc1ccc(COc2ccc3ccc(=O)oc3c2)cc1,-69,-7,-12,i,2,1,1,1
CC(C)(C)OC(=O)N1CCN(C(=O)c2[nH]cnc2C(=O)NCc2ccccc2)CC1,10,nt,-7,nt,7,nt,7,3
Clc1ccccc1-c1nnc2sc(-c3ccncc3)nn12,16,-2,-12,i,-1,8,2,-2
N#Cc1ccc(-c2ccc(OCC(O)Cn3nnc4ccccc43)cc2)cc1 (stereo not given),59*,-2,-7,nt,-8,-6,4,-10
CCCC(C(=O)NC1CCCC1)N(C(=O)Cn1nnc(-c2ccc(C)o2)n1)c1ccccc1OC (stereo not given),nt,-8,nt,i,nt,1,1,-1
CCOC(=O)N1CCN(C(=O)COC(=O)C2CCN(S(=O)(=O)c3c(C)c(C)cc(C)c3C)CC2)CC1,6,nt,0,i,-12,nt,-1,1
CCOC(=O)C(Cc1ccccc1)NC(=O)CCc1nnc2ccc(N3CCCC3)nn12 (stereo not given),-6,3,-8,i,-12,16,-1,1
CCOC(CCNC(=O)c1cc2c(=O)[nH]c3ccccc3c2s1)OCC,-2,-11,nt,i,4,8,4,-3
CC(C)(C)c1cc2nc(NCc3cccc(Cl)c3)ccn2n1,36,nt,-6,nt,nt,nt,3,-1
O=C(c1ccc(NS(=O)(=O)c2cccs2)cc1)N1CCOCC1,-3,2,-15,i,6,-5,-4,-1
CCn1c(O)c(C2=NCCCC2)c2ccccc21,nt,1,-2,i,-1,7,3,5
COc1cc(/C=N/NC(=S)Nc2cccc(S(=O)(=O)N(C)C)c2)ccc1O,-2,-6,-7,i,2,-6,0,-6
O=C(COC(=O)c1ccc(OC(F)F)cc1)NC(=O)NC1CCCC1,-11,nt,-5,nt,nt,nt,-2,-3
COc1cc2c(cc1NC(=O)CSc1nnnn1-c1ccccc1)oc1ccccc12,nt,-11,nt,i,-18,-2,-5,-1
Cc1ccc(-n2ncc3c(=O)n(CC(=O)NCc4ccco4)cnc32)cc1C,-200,11,-12,i,34,11,5,2

# 4 of the compounds above, with two lines to a compound:
# Each structure is followed by: HIV Env fusion	eIF4H FP inh	Yeast UUG start	Rce1 inhib	CSC inhib	PABP polyA inh	MT1-MMP act inh	MT1-MMP act inh RFP
> COc1cc(/C=N/NC(=S)Nc2cccc(S(=O)(=O)N(C)C)c2)ccc1O
  -2	-6	-7	i	2	-6	0	-6
> O=C(COC(=O)c1ccc(OC(F)F)cc1)NC(=O)NC1CCCC1
  -11	nt	-5	nt	nt	nt	-2	-3
> COc1cc2c(cc1NC(=O)CSc1nnnn1-c1ccccc1)oc1ccccc12
  nt	-11	nt	i	-18	-2	-5	-1
> Cc1ccc(-n2ncc3c(=O)n(CC(=O)NCc4ccco4)cnc32)cc1C
  -200	11	-12	i	34	11	5	2

# More entries follow:
SMILES,HIV Env fusion,eIF4H FP inh,Yeast UUG start,Rce1 inhib,CSC inhib,PABP polyA inh,MT1-MMP act inh,MT1-MMP act inh RFP
CCCC#Cc1ccc2c(c1)O[C@H](CN(C)C(=O)CC1CC1)[C@H](C)CN([C@@H](C)CO)S2(=O)=O,-36,nt,32&15&19,nt,nt,nt,-2,-2
Cc1ccc(C(=O)c2c(NC(=O)CSc3nnc(N)s3)sc3c2CCCC3)cc1,nt,3,-20,i,-7,-6,1,-6
COc1ccc(OC)c(-c2cc(C(=O)Nc3cccc(Cl)c3)no2)c1,nt,-5,15,i,-9,20,3,-3
COc1ccc(/C(N)=N/OC(=O)c2cccc([N+](=O)[O-])c2)cc1,nt,-3,-12,i,-5,1,-1,2
CCCCN(CCCC)CC(O)CN1C(=O)NC(C)(C)C1=O (stereo not given),nt,0,nt,i,2,8,0,2
O=C(Nc1ccc(N2CCOCC2)c2nonc12)C1CCCC1,nt,-4,-19,i,10,12,9,2
CCN(CC)C(=O)c1c(C)nc2ccccn12,nt,-3,-19,i,-17,0,2,4
Cc1ccc(S(=O)(=O)N2[C@@H](c3ccc(Br)cc3)C(C(=O)O)=C[C@H]2CC2CCCC2)cc1,-8,nt,-15,nt,nt,nt,12,-1
CCN(CC)S(=O)(=O)c1ccc(N2CCOCC2)c(NC(=O)c2ccc3ccccc3c2)c1,22,-7,nt,i,0,31,0,-2
COc1ccc(N(C(=O)C2CCCCC2)C2C=CS(=O)(=O)C2)c(OC)c1 (stereo not given),nt,-10,-8,i,-12,-7,12,-1
Oc1ccc(/C=N\Nc2cc(N3CCOCC3)nc(N3CCOCC3)n2)c(O)c1,nt,9,-5,i,3,-8,3,6
CCN(CC(=O)Nc1ccc(N2CCOCC2)cc1)C(=O)COc1ccccc1OC,-14,3,nt,i,-4,-6,-2,3
Cc1nnc2c(NC3CCCCC3)nc3ccccc3n12,8,-14,-16,i,5,5,17,9
CC(=O)Nc1ccc(S(=O)(=O)N2CCSc3ccccc32)cc1,-111,nt,1,nt,62,nt,-2,-8
O=C(O)c1ccccc1SCc1cn2cc(Cl)ccc2n1,-17,-1,nt,i,3,6,2,6
COc1ccc(C(=O)O)cc1S(N)(=O)=O,-4,-12,1,i,-2,-10,-1,4
COc1ccc([C@H]2CC(=O)C=C(c3ccc(SC)cc3)C2)cc1OC,2,nt,-13,nt,-6,nt,-1,-22
COc1cc2c3c(c1)/C(=C1/SC(NC(C)=O)=NC1=O)C(=O)N3C(C)(C)C=C2C,-11,18,-18,i,25,8,1,-4
Cc1ccccc1N1C(N)=NC(N)=NC1(C)C,nt,-6,1,i,-3,0,nt,nt
COC(=O)c1cc(NC(=O)C2COc3ccccc3O2)ccc1Cl (stereo not given),-55,0,-13,i,2,5,1,-1
CC1CCCC(CC(N)=O)CC1 (stereo not given),-2,nt,-5,nt,nt,nt,5,5
CCOC(=O)N1CCC(NC(=O)CC(NS(=O)(=O)c2ccc(Cl)cc2)c2ccco2)CC1 (stereo not given),nt,1,7,i,nt,-6,3,3
O=C(O)c1ccccc1Nc1cccc(OCc2ccc3ccccc3n2)c1,8,nt,-8,nt,42,nt,3,3
O=Cc1ccc(Oc2cnccn2)cc1,0,6,nt,i,-14,8,1,3
O=C(CN(CCc1ccccc1)C(=O)CNS(=O)(=O)c1ccccc1)NCc1ccco1,nt,-2,-3,i,5,6,-1,-3
CC(=O)c1ccc(NC(=O)C(C)n2nc(-c3ccccc3)c3cc(Cl)ccc32)cc1 (stereo not given),16,-7,-18,i,27,-3,-7,-3
O=C(NC1(C(=O)NC2CCCCC2)CCCCC1)c1ccccn1,22,-5,-12,i,4,4,-6,-1

# Screening data as filed in PubChem BioAssay.
